# Mtb bLac sens = beta-lactam sensitization of Mtb H37Rv; 0.27% of 330,000 active; M. tuberculosis H37Rv growth with meropenem, percent inhibition; hits of this screen are not shown here; AID 434955; inhibition, % at 25 µM;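 active means about 74% or more and at least 40 points above the plate without the antibiotic, then above 30% in a dose series; inconclusive means first-round hits that could not be retested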;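 further: growth measured after seven days incubation then overnight dye step; 0% = bacteria only wells and 100% = bacteria with antibiotic; twin plates without the antibiotic show which effects depend on it; some results filed as inactive read as strong as hits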
# RecA splice inh = inhibitors of M. tuberculosis RecA intein splicing | P9WHJ3 | 0.75% of 290,000 active | inhibition, %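 (about 9 µM by stock and volumes)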 | cell-free RecA intein splicing, fluorescence; in the data active means inhibition above about 30%; inconclusive means no clear call, values can overlap the other calls;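 further: 0% = vehicle wells and 100% = reference inhibitor control wells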
# Target sequence (P9WHJ3 whole entry, looked up, canonical isoform): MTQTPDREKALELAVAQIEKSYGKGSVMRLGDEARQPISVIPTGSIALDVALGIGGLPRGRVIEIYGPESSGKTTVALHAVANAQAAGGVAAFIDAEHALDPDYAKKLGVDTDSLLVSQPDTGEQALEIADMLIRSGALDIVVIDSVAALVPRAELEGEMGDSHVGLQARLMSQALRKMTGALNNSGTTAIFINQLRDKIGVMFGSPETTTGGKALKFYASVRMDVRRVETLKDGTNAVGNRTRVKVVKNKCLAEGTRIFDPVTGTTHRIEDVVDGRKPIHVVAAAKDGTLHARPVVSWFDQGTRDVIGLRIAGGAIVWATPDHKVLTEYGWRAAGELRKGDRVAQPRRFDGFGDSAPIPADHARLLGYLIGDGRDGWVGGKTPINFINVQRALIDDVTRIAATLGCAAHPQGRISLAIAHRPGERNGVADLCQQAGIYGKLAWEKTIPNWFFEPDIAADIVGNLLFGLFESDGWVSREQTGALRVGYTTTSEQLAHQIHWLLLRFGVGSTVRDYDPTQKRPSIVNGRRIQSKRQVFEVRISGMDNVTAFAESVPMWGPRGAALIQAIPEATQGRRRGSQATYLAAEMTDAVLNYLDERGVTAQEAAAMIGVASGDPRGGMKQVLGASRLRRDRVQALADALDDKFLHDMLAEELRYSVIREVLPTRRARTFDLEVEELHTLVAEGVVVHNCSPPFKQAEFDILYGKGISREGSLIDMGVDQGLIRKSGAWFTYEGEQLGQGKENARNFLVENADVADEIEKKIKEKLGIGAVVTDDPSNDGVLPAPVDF
# YopH inh = YopH (Yersinia) phosphatase inhibition; fluorescence Ex485/Em525; 0.16% of 140,000 active; inhibition, %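 (about 10 µM by stock and volumes)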; AID 898;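 active means inhibition of 50% or more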;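 further: controls were vehicle for no effect and minimum signal wells for full effect; inactives centre near -20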
# Mtb growth = M. tuberculosis H37Rv growth inhibitors, H37Rv strain (AID 1626) | 0.95% of 220,000 active | one-dose inhibition, % at 10 µM; IC50 in µM for titrated hits | M. tuberculosis H37Rv growth inhibition; higher % means a stronger effect;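 active means confirmed in a dose series; inconclusive means inhibition above 80% but not taken into the dose series; inactive means below 80% or under 30% at every dose of the series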;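 further: bacteria incubated seven days before Alamar blue readout; 0% = bacteria only wells and 100% = bacteria with antibiotic wells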
# Arbovirus anti = antivirals against arbovirus infection; 0.37% of 200,000 active; arbovirus infection cell-based antiviral screen; inhibition, % at 10 µM; AID 1251;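 active means inhibition from about 30%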;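 further: bluetongue infection of BSR cells; cell survival read as ATP light after 72 h; 0% = infected wells without compound and 100% = uninfected wells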
# Arbovirus anti repeat = second read-out of Arbovirus anti, no call of its own (marks repeat the call); inhibition, %; measured here: 10K subset replicate screen; many hits read low in the repeat;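 first of two repeat runs on a subset; 0% = infected and 100% = uninfected wells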
# Numbers without * were called inactive; ? = inconclusive; nt = no result given. An excerpt. The share of hits here may be higher or lower than overall.
SMILES,Mtb bLac sens,RecA splice inh,YopH inh,Mtb growth,Arbovirus anti,others
c1cncc(-c2nnc3n2C2(CCCCC2)Cc2ccccc2-3)c1,2,-1.0,-34,-6%,8,
Clc1ccc2[nH]c3c(c2c1)CCc1cn[nH]c1-3,76,3.3,-49,7%,-26,
CC(=O)c1c(C)[nH]c(C(=O)NCC2CCCCC2)c1C,-3,-0.1,nt,nt,nt,
CC1=CC=CC2=NC(=O)CC(C)(C(=O)N(CC(=O)NC3CCCC3)c3ccc(F)cc3)N12 (stereo not given),5,-0.1,nt,nt,nt,
N#C/C(=C\c1ccc(-c2ccc(C(=O)O)cc2)o1)c1nc2ccccc2[nH]1,nt,nt,nt,-5%,-8,
Cn1cc(C(=O)Nc2ccc(Cl)cc2)c(C(F)(F)F)n1,-2,1.1,nt,4%,0,
C=CCN(c1ccccc1)S(=O)(=O)c1ccc2c(c1)NC(=O)C(C)S2 (stereo not given),-5,2.9,nt,nt,nt,
COc1ccc(S(N)(=O)=O)cc1C(=O)OCCCOC(=O)c1cc(S(N)(=O)=O)ccc1OC,-5,5.6,nt,nt,nt,
CCOC(=O)C1=C(C)N=c2s/c(=C\c3ccncc3)c(=O)n2C1c1ccc2c(c1)OCO2 (stereo not given),nt,28,-17,-5%,12,Arbovirus anti repeat=-4
CCOc1ccccc1C(=O)NC(C(=O)Nc1cccnc1)C(C)C (stereo not given),-4,0.4,nt,-2%,3,
Cc1nnc(NC(=O)CSc2nc3[nH]ncc3c(=O)[nH]2)s1,54,4.2,nt,-2%,10,
O=C(N/N=C/c1cccc(O)c1)c1cc(-c2ccc3c(c2)OCO3)n[nH]1,0,-1.8,-13,3%,-12,
CCOC(=O)CNC(=S)SC,-3,1.9,nt,-10%,nt,
O=C(O)CCn1c(O)c(C=C2N=c3ccccc3=N2)sc1=S,56,0.8,nt,-5%,nt,
O=C(c1ccc(COc2c(F)c(F)cc(F)c2F)o1)N1CCN(c2ccccc2)CC1,6,9.8,17,-4%,-3,
CCc1ccc(NC(=S)N2CCN(S(=O)(=O)c3ccccc3)CC2)cc1,4,3.1,nt,nt,nt,
Oc1ccc(C[C@@H]2CNCCN2CCc2cccc(F)c2)cc1,0,-1.2,nt,nt,nt,
CCOC(=O)c1c(-c2ccc(OC)cc2)oc2ccc(O)cc12,43,9.7,nt,nt,nt,
COc1cc(C2SCC(=O)N2Cc2ccccc2)ccc1O (stereo not given),2,-1.3,nt,nt,nt,
CS(=O)(=O)Nc1ccccc1C(=O)N1CCOCC1,0,2.7,-27,-11%,1,
CCCc1nc2ccccc2c(C(=O)O)c1CC,0,-4.4,-16,nt,0,
NC(=O)c1ccccc1NS(=O)(=O)Cc1ccccc1,5,0.4,-26,8%,9,
CCc1c(C)nc2[nH]nc(-c3ccccc3)n2c1=O,4,-1.6,-23,3%,-1,Arbovirus anti repeat=0
O=C(COC(=O)C12CC3CC(CC(O)(C3)C1)C2)NC(=O)NCc1ccco1,-8,nt,-7,-20%,9,
Cc1cccc(CN2CCCN(Cc3ccc(Cl)cc3)S2(=O)=O)c1,-5,18,nt,nt,nt,
Cc1c(S(=O)(=O)NCCc2ccccc2)c(=O)n(C)c(=O)n1C,-4,-0.5,nt,-5%,nt,
O=C(c1ccc(-n2cnnn2)cc1)N(C1CCCCC1)C1CCCCC1,-3,0.2,nt,4%,5,
Cn1cccc1CC(=O)NNC(=S)Nc1ccc(F)cc1,9,0.6,-3,-9%,3,
COc1ccc(Nc2ncc(C(=O)N3CCC(C(N)=O)CC3)c3ccccc23)cc1,7,1.2,-3,-3%,8,
CCOC(=O)c1sc(=NC(=O)c2ccc(S(=O)(=O)N(C)c3ccccc3)cc2)n(C)c1C,0,-12,nt,7%,-3,
COc1ccc(C(=O)O/N=C(\C)c2nccs2)cc1,61,0.9,nt,7%,-3,
CC(C)C[C@@H](CN=[N+]=[N-])N1CCN(Cc2ccccc2)CCC1=O,-9,-1.6,nt,nt,nt,
CCOC(=O)c1cc(-c2ccccc2)sc1NC(=O)C(C)N1C(=O)c2ccccc2C1=O (stereo not given),-3,1.8,-25,-3%,-13,
COc1cc(/C=N/n2c(-c3cc(C)[nH]n3)n[nH]c2=S)ccc1O,-7,-0.1,nt,-12%,nt,
COc1ccccc1CNc1ncnc2sccc12,-3,-1.5,nt,nt,nt,
Cc1cc(C)c(S(=O)(=O)NCc2cn3c(C)csc3n2)c(C)c1,-1,-4.1,-14,1%,6,
Cc1ccccc1OCCn1c(=S)[nH]c2c(N)ncnc21,0,-1.8,nt,nt,nt,
COc1ccccc1NC(=O)CN1CCN(CC(=O)Nc2ccc(C)c(F)c2)CC1,47,1.1,nt,nt,nt,
O=C(c1cc(COc2ccc(F)cc2Cl)on1)N1CC[C@@H]2CCCC[C@H]2C1,5,1.0,nt,nt,nt,
CCN1C(=O)/C(=C/c2c(C)nn(C)c2C)SC1=S,8,-0.4,-26,-7%,2,
Cc1ccc(OCCN2C(=O)CSC2=O)cc1,4,-4.5,-22,-1%,-4,
Cc1nc(N2CCN(Cc3ccccc3)CC2)nc2c1C(=O)CCC2,7,4.8,18,nt,9,
CN(C1CCCCC1)S(=O)(=O)c1cc2c(cc1Cl)NC(=O)CO2,-5,0.2,nt,nt,nt,
COc1cccc(NC(=O)CN(C)C(=O)c2cc(-c3ccccc3)nc3ccccc23)c1,-3,-3.0,nt,nt,nt,
CCc1nnc(NC(=O)CSc2nc3cc(OC)ccc3cc2C)s1,-11,-3.1,nt,-1%,-6,
CC(=O)c1cn(C)c(=O)[nH]c1=O,-4,0.1,nt,4%,8,
CC(C)CCN1CCN(Cc2cnc(N3CCCC3)s2)CC1CCO (stereo not given),-8,-1.5,nt,-3%,2,
O=C(N/N=C/c1ccccn1)c1ccc2nc[nH]c2c1,-12,-0.9,nt,-4%,nt,
CCOC(=O)CNC(=O)CSc1nnc(NC(=O)c2ccc(C)cc2)s1,-7,-2.2,nt,4%,-1,
C=CCOc1ccc(C(=O)N(Cc2ccc(N(C)C)cc2)C2CCS(=O)(=O)C2)cc1 (stereo not given),-4,-0.6,-25,-8%,3,
CCN(CC)S(=O)(=O)c1ccc(C(=O)Nc2nnc(NC(=S)Nc3ccccc3)s2)cc1,-2,1.6,nt,1%,nt,
CC(C)(C)c1cc[n+](-c2[nH]c(=O)sc2/C=N/NC(=O)c2ccccc2[O-])cc1,0,-1.0,nt,nt,nt,
CCOc1ccc2nc(NS(=O)(=O)c3cccs3)sc2c1,-6,-4.2,nt,nt,nt,
CC(C)Oc1cccc(C(=O)C2CCCN(C(=O)c3ccc4c(c3)OCO4)C2)c1 (stereo not given),3,5.3,nt,nt,nt,
COC(=O)C(NC(=O)c1ccco1)(Nc1cc(C)ccn1)C(F)(F)F (stereo not given),-5,-1.1,13,3%,1,
Clc1cccc(CN2CCN(c3nc4nonc4nc3NC3CC3)CC2)c1,5,-0.7,nt,1%,5,
O=C(O)c1ccccc1CSc1nnc2c(n1)[nH]c1ccccc12,6,-2.4,nt,-17%,nt,
Cc1ccc(NS(=O)(=O)c2ccc(NC(=O)CSc3ccc(Cl)cc3)cc2)c(C)c1,-2,-0.4,-28,-7%,-2,
Cc1ccc(OCCNC(=O)CCc2ccccc2)cc1C,-12,0.3,nt,nt,nt,
O=c1c2ccccc2ncn1CCCCOc1ccc(Br)cc1,1,-0.8,nt,5%,2,

# Later entries
SMILES,Mtb bLac sens,RecA splice inh,YopH inh,Mtb growth,Arbovirus anti,others
COc1ccc(CCN2C(=O)NC(NC(=O)C(C)(C)C)(C(F)(F)F)C2=O)cc1OC (stereo not given),-1,-3.6,-10,4%,8,
O=C(NCc1ccco1)c1ccccc1NS(=O)(=O)c1ccc(Br)s1,-15,6.9,-4,-10%,13,
Cc1ccc(S(=O)(=O)NC(C)(C)C)cc1C(=O)OC(C)C(=O)NC1CC1 (stereo not given),1,-2.8,nt,nt,nt,
CCN1CCN(C(=O)Cn2c(=O)sc3ccccc32)CC1,?,1.5,-38,-1%,4,Arbovirus anti repeat=3
Nc1nc(-c2ccccc2Br)cs1,11,2.0,-6,8%,-5,
O=S(=O)(N/N=C/c1ccc2c(c1)OCO2)c1ccc(Br)cc1,-10,0.7,nt,nt,nt,
COc1ccc(Nc2nc(C)nc3sc4c(c23)CCC4)cc1O,-4,4.3,nt,1%,29,
COc1cccc(C(=O)Nc2cccc(-c3ccc(N4CCOCC4)nn3)c2)c1,1,2.2,nt,nt,nt,
CSc1nccc(NC(=O)c2ccc(C(C)(C)C)cc2)n1,59,9.6,nt,nt,nt,
COc1ccccc1CNC(=O)c1cn(C)c2ccc(S(=O)(=O)N3CCCC3)cc2c1=O,5,-2.7,nt,2%,-2,
CC(C)CN(C(=O)COC(=O)Cc1ccc(Cl)cc1)c1c(N)n(Cc2ccccc2)c(=O)[nH]c1=O,-13,0.9,nt,nt,nt,
COC(=O)C1=C(C(=O)OC)C2(OC1c1ccccc1C)C(=O)c1ccccc1C2=O (stereo not given),-7,-1.9,-31,-2%,3,
Cc1sc2ncn(CC(=O)NCC(=O)N3CCN(c4ccccc4F)CC3)c(=O)c2c1C,-6,-2.0,nt,nt,nt,
COCCNC(=O)c1cccc(OC2CCN(Cc3cccc(SC)c3)CC2)c1,0,-1.4,nt,nt,nt,
CC(=O)c1cccc(NC(=O)COc2ccc3oc(=O)cc(C)c3c2)c1,-8,0.1,nt,nt,nt,
C/C(=C\C(=O)C(F)(F)F)Nc1ccc(C)cc1,-3,7.2,7,-2%,5,
CC(=O)c1cccc(NC(=O)c2ccoc2C)c1,-7,1.3,nt,-3%,-1,
Cc1[nH]nc2c1C(=O)CCC2,-2,-2.2,8,-8%,6,
COc1ccc(C2C3C(=O)N(N(C)c4ncc(C(F)(F)F)cc4Cl)C(=O)C3ON2C)cc1 (stereo not given),5,0.0,nt,38%,24,
COc1ccc(C(=O)NCCc2nnc3ccc(SCC(=O)NCc4ccccc4)nn23)cc1,0,0.3,nt,nt,nt,
Cc1ccc(NC(=S)NN(C)c2cc(C)nc(C)n2)cc1,-5,10,-14,2%,-1,
COCCN(C(=S)Nc1cccc(OC)c1)C1CCN(C(C)=O)CC1,6,-0.5,-13,0%,-2,
Cc1ccc(C2=[N+]([O-])C3(CCCCC/C3=N\O)N(O)C2(C)C)o1 (stereo not given),20,-1.4,-32,6%,5,Arbovirus anti repeat=8
CC1CN(C(=S)Nc2ccccc2C(F)(F)F)CC(C)O1 (stereo not given),6,-5.5,nt,nt,nt,
CC(=O)Oc1cccc(N2C(=O)c3ccccc3C2=O)c1,-3,1.1,-1,-3%,2,
Cn1cccc1C(=O)NCC1CCCCC1,-8,-1.5,nt,nt,nt,
O=C(CSc1ncccc1-c1nc2ccccc2[nH]1)NC1CC1,-1,0.5,-43,1%,9,
CCOC(=O)NC(=O)CSc1nnc(C2CC2)n1Cc1ccco1,1,-2.6,nt,7%,2,
N=c1c2c3c(sc2ncn1Nc1ccccc1)CCC3,96,-0.5,nt,11%,nt,
O=C(NC1CCCC1)C1C2C=CC3(CN(Cc4cccs4)C(=O)C13)O2 (stereo not given),-1,0.0,-24,nt,4,Arbovirus anti repeat=3
COc1cc(C)c(Br)cc1S(=O)(=O)NCCN1CCOCC1,-4,-0.2,nt,5%,5,
O=C1CC(c2ccccc2Cl)C2=C(COC2=O)N1 (stereo not given),-3,-4.8,-37,-8%,10,
Cn1ccnc1SCC(=O)Nc1cccc2ccccc12,-14,4.3,-8,-12%,4,
O=C(C1CCC(=O)N1Cc1ccccc1Cl)N1CCN(c2cccc(Cl)c2)CC1 (stereo not given),-3,3.6,-26,-3%,-8,
Cn1c(=O)c(-c2ccccc2[N+](=O)[O-])c(Cl)c2ccccc21,9,1.1,nt,nt,nt,
CC(C(=O)NCc1ccccc1)N1C(=O)CN(C)C(=O)c2ccccc21 (stereo not given),3,-2.5,-37,-9%,-2,
COc1cccc(CC2(CO)CCCN(Cc3cn[nH]c3-c3ccccc3)C2)c1 (stereo not given),0,-2.2,nt,-1%,6,
CN(c1nc(-c2ccc(Br)cc2)cs1)C1CCS(=O)(=O)C1 (stereo not given),5,0.8,nt,5%,19,

# In the list so far, these have a COOH group:
SMILES,Mtb bLac sens,RecA splice inh,YopH inh,Mtb growth,Arbovirus anti,others
N#C/C(=C\c1ccc(-c2ccc(C(=O)O)cc2)o1)c1nc2ccccc2[nH]1,nt,nt,nt,-5%,-8,
O=C(O)CCn1c(O)c(C=C2N=c3ccccc3=N2)sc1=S,56,0.8,nt,-5%,nt,
CCCc1nc2ccccc2c(C(=O)O)c1CC,0,-4.4,-16,nt,0,
O=C(O)c1ccccc1CSc1nnc2c(n1)[nH]c1ccccc12,6,-2.4,nt,-17%,nt,

# Bioassay records as filed in PubChem BioAssay.
